Screening results (PubChem)
Six1-Eya2 inh: qHTS Assay for Inhibitors of the Six1/Eya2 Interaction; 0.56% of 360,000 active; AlphaScreen GST-Six1/His-Eya2 binding, biochemical; active compounds read low; control for the full effect not named in the record; activity change, % (test concentration not listed); in the data active = activity change below about -65%; inconclusive = about -30% to -65%; inactive = above about -30%; note: % is set by controls: 0 for no effect and ±100 for the full control effect
Target sequence (O00167 whole entry, looked up): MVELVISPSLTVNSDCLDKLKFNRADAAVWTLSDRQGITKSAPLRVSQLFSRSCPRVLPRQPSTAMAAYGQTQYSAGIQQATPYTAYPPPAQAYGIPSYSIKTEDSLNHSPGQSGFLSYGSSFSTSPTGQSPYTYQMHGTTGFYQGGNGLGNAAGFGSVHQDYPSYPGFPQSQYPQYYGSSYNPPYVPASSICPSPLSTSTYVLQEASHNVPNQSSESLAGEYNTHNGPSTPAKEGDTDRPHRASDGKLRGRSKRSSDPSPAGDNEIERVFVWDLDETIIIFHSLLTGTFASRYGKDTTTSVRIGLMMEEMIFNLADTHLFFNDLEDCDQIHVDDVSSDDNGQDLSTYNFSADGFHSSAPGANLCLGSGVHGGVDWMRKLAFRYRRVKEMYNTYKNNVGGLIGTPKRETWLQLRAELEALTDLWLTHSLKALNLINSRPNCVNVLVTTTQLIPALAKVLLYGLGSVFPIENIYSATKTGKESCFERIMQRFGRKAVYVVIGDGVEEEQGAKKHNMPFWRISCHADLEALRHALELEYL
Target sequence (Q15475 whole entry, looked up): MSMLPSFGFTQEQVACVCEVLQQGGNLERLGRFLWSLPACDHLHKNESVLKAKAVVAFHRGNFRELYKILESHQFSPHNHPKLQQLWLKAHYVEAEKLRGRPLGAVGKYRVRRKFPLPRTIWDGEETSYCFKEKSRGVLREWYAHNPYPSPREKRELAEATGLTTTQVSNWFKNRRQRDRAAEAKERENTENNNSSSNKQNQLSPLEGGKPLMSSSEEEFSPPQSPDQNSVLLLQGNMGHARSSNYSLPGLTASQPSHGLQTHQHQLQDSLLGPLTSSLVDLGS
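AlphaScreen luminescence read after one hour at 37 °C in darkness. Pin-transferred compounds met GST-Six1 and His-Eya2 protein (5X stock 250 nM/500 nM) plus glutathione donor and Ni-chelate acceptor beads (5X, 50 ug/mL).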
PINK1 expr mod: A Quantitative High throughput Screen to Identify Chemical Modulators of PINK1 Expression. PINK1 immunofluorescence, high-content cytometry, 24 h. Potency, µM (highest dose often 76.6 µM), inactives show at the highest dose activation (PINK1 increase), actives largely listed as activators. 0.2% of 410,000 active; active = well fitted activation curve with a large enough effect; inconclusive = small, poorly fitted or top-dose-only effect; inactive = flat fitted curve, though single readings scatter; cell line not stated here;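 note: potency is the fitted concentration of half-maximal effect; % of control where 0% means no effect; nearly all actives have a fitted effect of over 65% in size; a mitochondrial uncoupler was the plate control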
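Measures PINK1 amount and localization on or inside mitochondria by immunofluorescence. Stable cells get compounds at 5 concentrations for 24 hours before fixation and staining; CCCP controls included.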
TRPML1 blocker: qHTS for Inhibitors of the Human Mucolipin Transient Receptor Potential 1 (TRPML1); TRPML1-inducible cells, Ca2+ dye fluorescence, FDSS; active compounds read low; inhibition of EC80 agonist-evoked calcium signal; 0.02% of 390,000 active; activity change, negative = inhibition, % (concentration not given with the values); Mucolipin-1 (Homo sapiens), Q9GZU1; in the data active means activity change below about -50%; inconclusive means about -30% to -50%; inactive means above about -30%;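 note: stimulus is agonist 54-4 at its EC80 concentration; % is set by controls: 0 for no effect and ±100 for the full control effect; the text of the record puts the active cut at -80%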
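Tet-induced TRPML1-DL cells loaded with Ca8 no-wash calcium dye were read kinetically on FDSS. Compound addition was followed by EC80 agonist 54-4 (4 uM final); inhibition was read over 110 s.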
CtBP-E1A blk: qHTS Assay for Inhibitors of the CtBP/E1A Interaction. AlphaScreen GST-E1A/His-CtBP binding, 1536-well; active compounds read low; control for the full effect not named in the record. activity change, % (no concentration beside the values). 0.49% of 340,000 active. CtBP / adenovirus E1A interaction (AlphaScreen); in the data active means activity change below about -65%; inconclusive means about -30% to -65%; inactive means above about -30%; note: % is set by controls: 0 for no effect and ±100 for the full control effect
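Protein mix (5X: 125 nM each GST-E1A, His-CtBP) was incubated with pinned compound 2 h at 37 deg C in dark, in 50 mM Tris pH 8.0 buffer with 300 mM NaCl. Glutathione donor and nickel acceptor beads followed; AlphaScreen signal read after 1 h.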
TRPML1 agonist: qHTS for Agonists of the Human Mucolipin Transient Receptor Potential 1 (TRPML1); Mucolipin-1 (Homo sapiens), Q9GZU1; TRPML1-expressing cells, Ca2+ dye fluorescence, FDSS; host cell line not named in the record; reference of the full effect not given here; activation, % (no concentration beside the values); 0.12% of 410,000 active; AID 624414, 2012; in the data active = activation above about 50%; inconclusive = about 30% to 50%; inactive = below about 30%; note: 0% is about no effect; the text of the record puts the active cut at 80%
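TRPML1-DL cells, Tet-induced overnight (~16 h, 37 degrees C), loaded 45-90 min at room temperature with Ca8 no-wash calcium dye plus quencher. FDSS fluorescence: 10 s baseline, compound pin-transfer, 110 s agonist read, then EC80 54-4 (4uM final) and 110 s antagonist read.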
D2 ag: Beta-Arrestin HTS for Positive Allosteric Modulators of the Human D2 Dopamine Receptor: Agonists | D(2) dopamine receptor (Homo sapiens), P14416 | DiscoveRx PathHunter D2 beta-arrestin, luminescence, 90 min; 100% = 57 uM dopamine signal | activation, % (no concentration beside the values) | 0.084% of 360,000 active | AID 624465, 2012; in the data active = activation above about 40%; inconclusive = about 15% to 40%; inactive = below about 15%; note: compound concentration not given in the record; the text of the record calls up to 30% inactive
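Agonist mode: compounds alone added to overnight-plated D2 PathHunter cells for 90 min at 37 C, with 57 uM final dopamine (EC100) defining full response. Beta-arrestin recruitment detected by chemiluminescent reagent, read after 1 h at ambient temperature.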
* hit, by the source's call; ? = inconclusive; . = not tested or not shown; [ ] = dose if it differs, or a comment.

SMILES	Six1-Eya2 inh	PINK1 expr mod	TRPML1 blocker	CtBP-E1A blk	TRPML1 agonist	D2 ag
CCCC(=O)Nc1nc2n(n1)C(c1ccccc1)CC(=O)N2 (centres undefined)	0	-1.5%	-2	-4	0.2	3.3
Nc1ccc(N2CCCC2)c(S(=O)(=O)Nc2cccc(C(F)(F)F)c2)c1	-15	-0.8%	-1	-19	-0.2	-4.5
CCN(CC(=O)Nc1c(F)cccc1F)C(=O)CCNC(=O)c1ccccc1OC	9	0.4%	-8	7	-0.7	-0.8
O=C(NCc1ccc(Cl)cc1)C1CCCCN1S(=O)(=O)c1ccccc1 (centres undefined)	17	-2.2%	4	13	-1.4	-5.1
COc1ccc(N2CCN(C(=O)NCc3noc4ccccc34)CC2)cc1	.	2.0%	2	.	0.7	.
CCC(C)(C)n1nnnc1C(c1ccc(OC)c(OC)c1)N1CCN(c2ccccc2)CC1 (centres undefined)	-5	3.8%	-8	-1	-0.1	2.8
CCC(=O)N1c2ccc(S(=O)(=O)NCCc3ccc(C)cc3)cc2CC1C (centres undefined)	-1	0.1%	-2	-8	0.4	2.3
Cc1cc2oc(=O)c3c(c2cc1OCc1nn[nH]n1)CCCC3	?	2.0%[38.3 µM]	19	-29	-0.1	-4.4
CCC(CC)NC(=O)c1cccc([N+](=O)[O-])c1C	6	1.0%	13	8	0.5	1.0
O=C(Cc1noc2ccccc12)Nc1ccc2ccccc2c1	0	0.7%	1	-3	0.8	-2.7
O=C(COc1ccccc1)NS(=O)(=O)c1ccccc1	4	2.5%	1	4	-0.2	4.0
CCC(CC)C1=NN2C(=N)/C(=C\c3cc(C)n(-c4cccc(C)c4)c3C)C(=O)N=C2S1	-2	4.9%	-4	-5	2.7	-3.3
O=C1CN(C(=O)CC2C(=O)NCCN2Cc2ccccc2C(F)(F)F)CCN1 (centres undefined)	4	1.0%	-6	8	-0.2	-3.6
S=C(Nc1ccccc1)Nc1ccccn1	-2	0.9%	-2	-1	0.1	-6.2
CC(=O)COC(=O)CNC(=O)c1ccc(Br)cc1	19	-2.9%	-1	7	-0.7	-3.7
Cn1ccc2c(N3CCCCC3)cc3c(c21)C1CCC3O1 (centres undefined)	-14	2.3%	1	-2	-0.8	2.1
COc1cc(C(=O)N(Cc2ccc(C)o2)C2CCS(=O)(=O)C2)cc(OC)c1OC (centres undefined)	1	1.1%	4	-3	-0.8	-0.8
CCOC(=O)c1c(S(=O)(=O)N2CCC(C(=O)Nc3ccc(OCC)cc3)CC2)c(C)n(C)c1C	.	-1.0%	?	.	-0.4	.
C[C@@H]1CN([C@@H](C)CO)C(=O)CCCn2nncc2CO[C@H]1CN(C)S(=O)(=O)c1ccc2ccccc2c1	-9	2.5%	-18	-2	1.6	-2.5
COc1cccc(-c2nc(CS(=O)(=O)CC(=O)NCCCN3C(C)CCCC3C)c(C)o2)c1 (centres undefined)	-1	0.3%	4	-7	-0.4	-5.5
CC(=O)N(c1nc(CCl)cs1)c1c(C)cc(C)cc1C	3	0.3%	-2	4	-0.4	-2.5
Cc1ccccc1CC1(CO)CCCN(C(=O)Cc2c(F)ccc(F)c2F)C1 (centres undefined)	9	-0.7%	-2	0	-0.1	-1.1
CCc1nc(C#N)c(N2CCCCC2)o1	12	-3.9%	-14	0	-0.3	0.9
COc1c(Cl)cc(C(=O)NN)cc1Cl	2	4.9%	12	-1	1.4	6.4
CC(=O)Oc1ccc(N(C(C)=O)S(=O)(=O)c2ccc(C)cc2)c2ccccc12	-8	-0.6%	9	0	-0.4	8.2

2 of the compounds above, with values under each structure:
Values in the order: Six1-Eya2 inh | PINK1 expr mod | TRPML1 blocker | CtBP-E1A blk | TRPML1 agonist | D2 ag
CCc1nc(C#N)c(N2CCCCC2)o1
  12 | -3.9% | -14 | 0 | -0.3 | 0.9
Cn1ccc2c(N3CCCCC3)cc3c(c21)C1CCC3O1 (centres undefined)
  -14 | 2.3% | 1 | -2 | -0.8 | 2.1

New compounds follow
SMILES	Six1-Eya2 inh	PINK1 expr mod	TRPML1 blocker	CtBP-E1A blk	TRPML1 agonist	D2 ag
Cc1ccc(C)c(N2CCN(c3nnnn3-c3ccccc3)CC2)c1	3	2.4%	59	4	2.1	1.1
Cc1onc(-c2c(F)cccc2Cl)c1C(=O)Nc1cccc(S(=O)(=O)N2CCCCC2)c1	-1	0.2%	10	2	2.3	12
CCSc1nnc(Cc2cc(=O)[nH]c(=O)[nH]2)n1-c1cc(C)ccc1C	0	1.5%	-1	4	-0.7	0.1
O=C(Cc1csc(N2CCOCC2)n1)N/N=C/c1ccccc1C(=O)O	2	-0.6%	1	.	-0.5	-4.0
Cc1cc(/C=C2/NC(=O)NC2=O)c(C)n1-c1ccccn1	4	1.5%	2	2	-0.2	0.6
Cc1cccc(C)c1NC(=O)C(=O)NCC1CCCN1S(=O)(=O)c1cccs1 (centres undefined)	-6	2.1%	4	6	-0.5	-5.0
O=C(c1ccc(F)cc1F)N1CCC(c2nc(-c3ccc(S(=O)(=O)N4CCCC4)cc3)no2)CC1	.	0.8%	34	.	-0.2	.
O=C(Cn1cc(C(F)(F)F)ccc1=O)N1CCN(S(=O)(=O)c2ccc(Cl)cc2)CC1	3	-0.1%	9	4	0.3	3.1
CN(C)N=Nc1ccc2nc[nH]c2c1	-73*	1.1%	13	.	-0.5	-1.5
COc1ccc(-n2nc([N+](=O)[O-])c(=NCCc3ccc(C)cc3)n2O)cc1	-27	0.7%	-3	-28	-1.1	?
CN(Cc1nc(Cc2ccccc2F)no1)[C@@H]1CS(=O)(=O)C[C@H]1O	-2	0.1%	7	.	0.6	-4.7
CCOC(=O)c1cccc(NC(=O)C2CCN(S(=O)(=O)c3c(C)noc3/C=C/c3ccc(C)cc3)CC2)c1	.	1.5%	-8	.	0.5	.
COc1ccc(NC(=O)Cc2ccccc2)cn1	20	1.2%	-9	7	0.7	-2.4
CCC(=O)N1CCN(c2ccc(NC(=O)c3ccc4c(c3)OCCO4)cc2)CC1	6	0.4%	-12	-4	0.1	-1.2
COc1ccc(/C=C/c2nc(C#N)c(NCc3ccc(C)cc3)o2)cc1OC	.	3.9%	8	.	-0.9	.
CCn1cc(/C=C(\NC(=O)c2ccccc2OC)C(=O)NCCCn2ccnc2)c2ccccc21	-10	0.5%	14	-6	1.8	-1.0
Cc1ccc2occ(/C=N/NC(=O)c3ccccc3Br)c(=O)c2c1	-20	2.8%	12	-11	1.4	-2.3
O=C(CNC1CCCCC1)N1CCc2ccccc2C1	3	-2.2%	-7	-2	1.2	-0.6
O=C(Nc1ccccc1C(=O)NCCCN1CCOCC1)c1ccccc1	0	1.2%	5	1	1.3	1.3
CCCSc1nnc2c(n1)OC(c1sccc1C)Nc1ccccc1-2 (centres undefined)	.	-0.2%	5	.	2.9	.
CCCCCCc1ccc(OC(=O)c2ccncc2)cc1	27	3.6%	-13	.	1.8	-0.7
COc1ccc(NS(=O)(=O)c2ccc(NC(=O)c3ccc(N(C)S(C)(=O)=O)cc3)cc2)c(OC)c1	-4	?	-7	4	1.2	7.8
COc1ccc(CN(Cc2ccc(C(=O)O)cc2)C(=S)Nc2cc(C)cc(C)c2)cc1OC	4	0.2%	18	.	0.3	-0.9
Cc1oc2cc3c(C(=O)N4CCCCC4)c(C)oc3cc2c1C(=O)N1CCCCC1	1	1.9%[38.3 µM]	34	9	-0.3	-1.3
Cc1cccc(NC(=O)c2c(-c3ccccc3)noc2C)n1	2	0.1%	13	2	-0.6	-3.7

Random excerpt: three entries already listed, in no set order.
SMILES	Six1-Eya2 inh	PINK1 expr mod	TRPML1 blocker	CtBP-E1A blk	TRPML1 agonist	D2 ag
CCn1cc(/C=C(\NC(=O)c2ccccc2OC)C(=O)NCCCn2ccnc2)c2ccccc21	-10	0.5%	14	-6	1.8	-1.0
COc1ccc(CN(Cc2ccc(C(=O)O)cc2)C(=S)Nc2cc(C)cc(C)c2)cc1OC	4	0.2%	18	.	0.3	-0.9
CCCSc1nnc2c(n1)OC(c1sccc1C)Nc1ccccc1-2 (centres undefined)	.	-0.2%	5	.	2.9	.

(list continues)
SMILES	Six1-Eya2 inh	PINK1 expr mod	TRPML1 blocker	CtBP-E1A blk	TRPML1 agonist	D2 ag
COc1cc(C(=O)Nc2ccc(C#N)cc2)c([N+](=O)[O-])cc1OC	4	0.9%	14	-1	0.4	-5.4
COC(=O)c1cccc(CN2C(=O)SC(Nc3ccc(Cl)cc3)C2=O)c1 (centres undefined)	.	0.4%	14	.	3.3	.
CCSc1ncc(Cl)c(C(=O)Nc2c(C(=O)c3ccc(C)c(F)c3)oc3ccccc23)n1	.	0.7%	-6	.	0.2	.
O=C(CN1CCN(c2ccccn2)CC1)N1CC(O)CO1 (centres undefined)	-2	1.2%	10	-1	0.1	7.2
Clc1cccc(-n2ncc3c(N4CCN(Cc5ccccc5)CC4)ncnc32)c1	.	-0.4%	-22	.	0.2	.
COc1ccc(NS(=O)(=O)c2cccc(C(=O)N/N=C/c3ccc4c(c3)OCCO4)c2)cc1	5	0.1%	-15	-8	-0.1	-2.6
CCOC(=O)c1c(CSc2ccccc2)n(C)c2cc(Br)c(O)c(CN(C)C)c12	-27	20%	9	-22	0.9	0.7
CC(=O)Oc1ccccc1Cn1c(C)c(C(=O)NCc2ccc(Cl)c(Cl)c2)sc1=O	?	8.4%	.	?	0.4	-0.7
CCc1nnc(NC(=O)c2ccc(S(=O)(=O)N3CCN(Cc4ccccc4)CC3)cc2)s1	1	?	-6	2	0.0	1.6
O=S(=O)(c1cccc2cccnc12)N1CCN(c2ccccn2)CC1	-2	0.6%	-1	.	3.4	1.5
CCOc1ncccc1C(=O)Nc1ccc2c(c1)OCCO2	1	-2.7%	-2	0	-0.5	-2.9
Cc1ccc(C(=O)N2CC(=O)Nc3ccc(F)cc3C2c2ccc(F)cc2)cc1 (centres undefined)	-6	7.2%	9	4	0.7	-4.1
CCOC(=O)c1cnn(-c2nc(CC)nc3sc4c(c23)CCC4)c1N	12	0.6%	5	-1	1.2	-3.5
COc1ccc(CN(Cc2ccco2)C(=O)COc2ccccc2OC)cc1	.	-0.5%	-19	.	1.6	.
Cn1nc(-c2ccc(Cl)cc2)c2cc(C(=O)N3CCCC3)sc21	?	7.8%	1	?	1.5	-1.5
COc1cc(/C=C(\C#N)C(=O)Nc2cccc(C(=O)O)c2)ccc1OCc1ccc(C)cc1	-12	3.0%	-12	-2	-1.3	-16
Cc1ccc(N2C(=O)SC(N(CC(=O)O)c3ccc(C)cc3)C2=O)cc1 (centres undefined)	0	1.7%	-18	.	0.3	-1.2
COC(=O)c1cccc(NC(=O)c2cccs2)c1C	3	-3.1%	-2	9	-0.6	-2.9
CC(C)c1cccc(C(C)C)c1NC(=O)COC(=O)c1ccc2c(c1)S(=O)(=O)c1ccccc1C2=O	3	0.1%	19	-10	-0.4	3.7
CC(C)c1ccc(/C=N/NC(=O)c2c(Cl)cnn2C)cc1	-2	4.2%	29	2	2.4	-2.3

This is a random part of the collection; any-hit rate near 1%.
